H5N1 antiviral = antiviral screen in MDCK cells, H5N1 avian flu | cytopathic effect, luminescence, 72 h; active compounds read high; no value below 0 was filed and about half of the inactive calls have no number; reference of the scale not given here | inhibition, % at 50 µM | 96,000 tested, 0.07% active | AID 740; in the data active = inhibition above about 25%
* = called active by the depositor; i = inactive. Not all compounds are listed, so the mix of outcomes need not match the whole.

No.	molecule	H5N1 antiviral
1	CCOc1cc(C)ccc1OCc1nnc(SCC(=O)c2cccc([N+](=O)[O-])c2)n1CC	1.4
2	Cc1ccc(C(=O)NCCSc2snnc2C)cc1	0.9
3	CCN(CCCNC(=O)CCNC(=O)Cn1cnc2ccccc2c1=O)c1ccccc1	i
4	CC(=O)c1c(C)[nH]c(C(=O)OCC(=O)N2CCc3ccccc32)c1C	0.1
5	Cc1ccc(SCc2noc(C(=O)NCC3CCCO3)c2C(=O)O)cc1C (stereo unspecified)	0.2
6	CCCC(CCC)n1[nH]c(=O)c2c(C)cc(C)nc21	i
7	CCOC(=O)Nc1ccc2c(c1)N(C(=O)OC)c1ccccc1CC2	i
8	CCOC(=O)c1c(NC(=O)CCN2CCOCC2)sc2c1CC(C)(C)OC2	i
9	Cc1ccc(-n2c(Cc3cccn3C)nnc2SCC(=O)Nc2nnc(C)s2)cc1	1.2
10	Cc1ccc2nc(-c3ccccc3)cc(C(=O)O)c2c1	0.1
11	CCS(=O)(=O)N1CCC(C(=O)NCCCN2CCN(c3ccccc3F)CC2)CC1	i
12	CC1(C)CC(=O)C2=C(C1)Oc1ncn(CCCO)c(=N)c1C2c1ccccc1 (stereo unspecified)	2.1
13	CCOC(=O)C1=C(C)N=C2SCCC(=O)N2C1c1ccc(C(=O)OC)cc1 (stereo unspecified)	i
14	COc1ccc(CCNC2CC(=O)N(CCc3ccccc3)C2=O)cc1 (stereo unspecified)	i
15	Cc1cc(-c2c(C)[nH]n(-c3ccccc3)c2=O)n(-c2ccccc2)n1	i
16	Cc1nc(C)c2c(c1C(F)(F)F)-c1ccccc1C2(F)F	0.1
17	Cc1nc2ccc(S(=O)(=O)NCC(=O)O)cc2s1	1.0
18	O=C(N/N=C/c1ccc(-c2cccc(C(F)(F)F)c2)o1)c1cccc(F)c1	0.1
19	O=C(NCCc1ccncc1)c1ccccc1F	1.4
20	Cc1ccc(SCc2ccc(C(=O)NCc3ccncc3)cc2)cc1	i
21	O=C(CSCC(=O)NC1CC1)Nc1ccccc1	i
22	CCOC(=O)CN1CC23C=CC(O2)C(C(=O)Nc2ccc(F)cc2)C3C1=O (stereo unspecified)	i
23	Cc1cc(C)c2c(-n3cccc3)c(NC(=O)OCc3ccccc3)sc2n1	i
24	COc1ccccc1CNC(=O)c1cc2c(s1)CS(=O)(=O)C2	0.3
25	O=C(NCCCN1CCc2ccccc2C1)C1CCN(S(=O)(=O)N2CCCC2)CC1	0.6

3 compounds drawn at random from the list so far, as already listed:
No.	molecule	H5N1 antiviral
17	Cc1nc2ccc(S(=O)(=O)NCC(=O)O)cc2s1	1.0
15	Cc1cc(-c2c(C)[nH]n(-c3ccccc3)c2=O)n(-c2ccccc2)n1	i
20	Cc1ccc(SCc2ccc(C(=O)NCc3ccncc3)cc2)cc1	i

Additional compounds
No.	molecule	H5N1 antiviral
26	O=C(Nc1ccsc1C(=O)NC1CCCCC1)c1ccc(F)cc1	0.6
27	CCn1c(=O)cc(SCC(=O)N(C)Cc2ccccc2)c2ccccc21	0.6
28	COC(=O)c1ccc(C(c2c(N)n(CC(C)C)c(=O)[nH]c2=O)N2CCN(c3ccccc3)CC2)cc1 (stereo unspecified)	i
29	Cn1c(NC(=O)c2ccc(F)c(F)c2)cc(=O)n(C)c1=O	i
30	O=C(O)C1CCCCC1C(=O)NC1CCCCC1 (stereo unspecified)	i
31	CCOC(=O)C1CCN(S(=O)(=O)c2c(C)[nH]c(=O)[nH]c2=O)CC1	i
32	CCOC(=O)Cn1nc(-c2ccccc2)ccc1=O	i
33	COc1ccc(S(=O)(=O)N2CCC(C(=O)Nc3cccc(C(C)=O)c3)CC2)cc1C	i
34	Cc1csc(SCC(=O)Nc2cccc(S(=O)(=O)N3CCCC3)c2)n1	7.1
35	CCc1ccc2[nH]c(=O)c(C(c3nnnn3Cc3ccccc3)N3CCOCC3)cc2c1 (stereo unspecified)	2.8
36	CCn1ncc2c(OCc3ccc(C#N)cc3)cc(C)nc21	i
37	CCOC(=O)Cn1c(CN2CCOCC2)nc2c1c(=O)[nH]c(=O)n2C	i
38	CCn1nnnc1SCC(=O)N1c2ccccc2CCc2ccccc21	1.0
39	O=C1CC(N2CCN(c3ccccc3Cl)CC2)C(=O)N1c1ccc(F)cc1 (stereo unspecified)	0.4
40	COc1ccc(C2C=C(c3ccc(C)cc3)Nc3ncnn32)cc1 (stereo unspecified)	0.2
41	Cc1cc(Cl)c(OCCN2C(=O)NC(C)(C)C2=O)c(Br)c1	i
42	CCCCCCCn1c(=N)n(CC(=O)c2ccco2)c2ccccc21	i
43	CCn1c(=O)c2c(nc(SCC(=O)NCC3CCCO3)n2C)n(C)c1=O (stereo unspecified)	1.4
44	CC(=NC(C)c1ccccc1)c1c(O)[nH]c(=O)[nH]c1=O (stereo unspecified)	1.1
45	CCOc1ccc(C(=O)Nc2c3c(nn2-c2ccc(C)cc2)CS(=O)C3)cc1OCC (stereo unspecified)	0.5
46	FC(F)C(F)(F)C(F)(F)C(F)(F)c1cc(-c2ccccc2)n[nH]1	1.3
47	c1cncc(-c2nnc(SCc3cccc4ccccc34)o2)c1	0.9
48	c1ccc(NCc2cccnc2)cc1	i
49	Cc1nn2c(N3CCOCC3)c3c(nc2c1-c1ccccc1)CCCC3	i
50	COc1ccc(OC)c(-n2c(CN3CCC(C(N)=O)CC3)nc3ccccc3c2=O)c1	2.0

Going on with the list.
No.	molecule	H5N1 antiviral
51	CCCSc1nc(-n2ncc(C#N)c2N)c2c3c(sc2n1)CCC(C)C3 (stereo unspecified)	7.1
52	Clc1ccc(Cn2cc(Br)cn2)cc1Cl	i
53	CN1CCN(C(=O)CSc2nc(-c3cccs3)cc(-c3cccs3)c2C#N)CC1	i
54	COc1ccc(CN(CC(=O)NCC2CCCO2)C(=O)CCC(=O)Nc2cc(C)ccn2)cc1 (stereo unspecified)	0.6
55	CCCC(=O)Nc1ccccc1NC(=O)CN(C)S(=O)(=O)c1ccccc1	0.8
56	CCN1CCCC1CNC(=O)c1ccc(CS(=O)(=O)c2ccccc2C)o1 (stereo unspecified)	0.9
57	O=c1c(-c2ccc(Br)cc2)coc2c(CN3CCOCC3)c(O)ccc12	i
58	Cc1cccc(-n2c(SCC(=O)Nc3nnc(C)s3)nnc2-c2ccoc2C)c1	i
59	CCOC(=O)c1c(NC(=O)CSc2nnc(-c3ccccc3)n2CC)sc(C(C)=O)c1C	0.0
60	COCCOC(=O)c1c(C)oc2ccc(OC(=O)c3ccc4c(c3)OCO4)cc12	i
61	O=C1CCCC(O)=C1C=Nc1ccc2c(c1)oc1ccccc12	i
62	O=C(Oc1cc(-c2ccccc2)no1)c1ccc(Cl)cc1	i
63	NCCCNC(=O)c1cc2ccccc2[nH]1	i
64	CC(=O)c1c(N2CCN(Cc3ccc4c(c3)OCO4)CC2)nc(=S)n(-c2ccccc2)c1C	i
65	O=C1CCCC2=C1C(c1cccs1)n1ncnc1N2 (stereo unspecified)	0.7
66	O=[N+]([O-])c1cccc(N=NN(CCO)c2cccc([N+](=O)[O-])c2)c1	0.9
67	Cc1ccc(C)c(CN2CCCNC2=O)c1	i
68	O=C(CCN1C(=O)c2ccccc2S1(=O)=O)Nc1nc2c(s1)CCCC2	i
69	COc1ccc(NC(=O)CC2C(=O)N(c3cccc(OC)c3)C(=O)N2C2CCCCC2)cc1 (stereo unspecified)	i
70	CCOC(=O)N1CCC(NCCNC(=O)c2ccccc2Cl)CC1	i
71	CCN(CC)C(=O)C1CCN(c2ncnc3c2cnn3-c2ccc(C)cc2C)CC1	0.4
72	CCCC(CCC(=O)Nc1ccc(S(N)(=O)=O)cc1)C(=O)O (stereo unspecified)	0.1
73	COc1ccc(S(=O)(=O)N/N=C(/C)c2cccc(NC(=O)c3ccccc3Cl)c2)cc1	1.0
74	COC(=O)[C@@H](NC(=O)NC1CCN(Cc2ccccc2)CC1)C(C)C	1.3
75	C=CCn1c(SCc2nnc(-c3ccccc3)o2)nnc1C(O)c1ccccc1 (stereo unspecified)	0.3

The list continues:
No.	molecule	H5N1 antiviral
76	COc1nc(OCCNC(C)=O)nc(N(C)C)n1	i
77	Cc1cc2c3nonc3ccc2n1C	i
78	COc1ccc(-c2nnc3ccc(SCC(=O)NCc4ccco4)nn23)cc1OC	4.0
79	O=C(NCCCN1CCN(CCCNC(=O)c2ccc(F)cc2)CC1)c1ccc(F)cc1	i
80	CCOc1cccc2cc(C(=O)Nc3cc(C)on3)c(=O)oc12	1.5
81	CN(C)S(=O)(=O)Oc1ccsc1C(=O)Nc1cccc(Cl)c1Cl	i
82	COc1cc(CNCCc2ccccc2)ccc1OCc1ccc(Cl)nc1	i
83	Cc1ccc(NC(=O)c2ccc(S(=O)(=O)NCC3CCCO3)cc2)cc1 (stereo unspecified)	i
84	Cc1ccc(CCNC(=O)C2CCCN(S(=O)(=O)c3cccs3)C2)cc1 (stereo unspecified)	1.2
85	Cc1ccc(S(=O)(=O)Oc2ccc3c(c2)O/C(=C\c2cccnc2)C3=O)cc1	1.0
86	CCOc1ccc(-c2cc(CCCC(=O)NCc3cccnc3)no2)cc1	i
87	Clc1ccc(C2=Nn3c(nnc3-c3cc(-c4ccccc4)n[nH]3)SC2)cc1	1.7
88	COc1cccc(Nc2cc(C)nc3nc(C)nn23)c1	i
89	COc1ccc(/C=N/NC(=O)c2cccc([N+](=O)[O-])c2)cc1OS(=O)(=O)c1ccc(C)cc1	i
90	Cc1ccc(SCCNC(=O)C(C)C)cc1	i
91	COC(=O)c1ccc(CSc2nc3sc4c(c3c(=O)n2C)CCCC4)o1	i
92	COc1cc(C2/C(=C(\O)c3cc(C)ccc3C)C(=O)C(=O)N2CCN(C)C)ccc1O (stereo unspecified)	i
93	O=C(Nc1ccc(F)cc1)N(CCCN1CCOCC1)Cc1cc2cc3c(cc2[nH]c1=O)OCO3	1.6
94	COc1ccc(/C=C(/C(=O)c2ccc(Cl)cc2Cl)n2cncn2)cc1	2.4
95	CN(C(=O)c1cnc(N2CCN(c3ncccn3)CC2)c2ccccc12)c1ccc(Cl)cc1	5.7
96	Cn1c(N)c(C(=O)CSc2nc(N)cc(=O)[nH]2)c(=O)n(C)c1=O	0.3
97	COc1ccc(OCC(=O)N2CCN(c3nnc(-c4ccccc4)c4ccccc34)CC2)cc1	i
98	Cc1cc(C)c(NC2=NS(=O)(=O)c3ccccc32)c(C)c1	0.8
99	COc1ccc(S(=O)(=O)N(CC(=O)N2CCN(C)CC2)C2CCCCC2)cc1OC	0.4
100	Cc1nn(-c2ccccc2)c(C)c1/C=N/NC(=O)c1cc(C23CC4CC(CC(C4)C2)C3)[nH]n1	0.5

Entries shown so far with a furan ring, fused or not, in the order listed:
No.	molecule	H5N1 antiviral
18	O=C(N/N=C/c1ccc(-c2cccc(C(F)(F)F)c2)o1)c1cccc(F)c1	0.1
42	CCCCCCCn1c(=N)n(CC(=O)c2ccco2)c2ccccc21	i
56	CCN1CCCC1CNC(=O)c1ccc(CS(=O)(=O)c2ccccc2C)o1 (stereo unspecified)	0.9
58	Cc1cccc(-n2c(SCC(=O)Nc3nnc(C)s3)nnc2-c2ccoc2C)c1	i
60	COCCOC(=O)c1c(C)oc2ccc(OC(=O)c3ccc4c(c3)OCO4)cc12	i
61	O=C1CCCC(O)=C1C=Nc1ccc2c(c1)oc1ccccc12	i
78	COc1ccc(-c2nnc3ccc(SCC(=O)NCc4ccco4)nn23)cc1OC	4.0
91	COC(=O)c1ccc(CSc2nc3sc4c(c3c(=O)n2C)CCCC4)o1	i

Continuation:
No.	molecule	H5N1 antiviral
101	Cc1ccc(C)c(OCCCCCn2ccnc2)c1	1.3
102	N#CCSc1nnc(Cc2cccc3ccccc23)n1C1CCCCC1	0.8
103	Cc1cc(C)c2[nH]c(=O)c(CN(CC3CCCO3)C(=O)C3CCCO3)cc2c1 (stereo unspecified)	1.1
104	COc1ccc(C(C)C)cc1S(=O)(=O)Nc1ccccn1	0.7
105	CCOC(=O)NNC(=O)c1ccc(Cl)cc1	i
106	Cc1ccc(C)n1-c1cc(S(=O)(=O)N2CCOCC2)ccc1N1CCCC1	1.0
107	CC(NC(=O)c1ccc(Cl)s1)C1CCCO1 (stereo unspecified)	1.6
108	Cc1cc(=O)oc(C)c1C(=O)N1CCc2c([nH]c3ccccc23)C1C(C)C (stereo unspecified)	i
109	CCOc1ccc(N(C(C)C(=O)N/N=C(\C)c2cccc(NC(=O)c3ccccc3)c2)S(C)(=O)=O)cc1 (stereo unspecified)	i
110	O=C(Cn1cc2c(n1)CCCC2)N1CCCC1	i
111	Cc1cc(C)n(Cc2ccc(C(=O)NCCC3=CCCCC3)o2)n1	0.3
112	COc1ccccc1-c1nc(-c2ccc(Br)cc2)no1	i
113	CCN(C(=O)Cc1ccccc1OC)c1nnc(-c2ccncc2)s1	i
114	O=C(COc1ncnc2c(Cl)cc(Cl)cc12)NCCC1=CCCCC1	0.4
115	Cn1c(SCC(=O)Nc2nccs2)nnc1-c1ccc(S(=O)(=O)N2CCCC2)cc1	1.1
116	Cc1nc(SCC(=O)Nc2ccc3c(c2)OCO3)c(C#N)c2c1CCCC2	0.5
117	O=c1cc(C(F)(F)F)c2cc3c4c(c2o1)CCCN4CCC3	1.0
118	CCOC(=O)C1C(=O)CC(C)(O)C(C(=O)OCC)C1c1ccc(F)cc1 (stereo unspecified)	0.5
119	CC1N(O)C2CCCCCC2N1O (stereo unspecified)	i
120	CC(=O)NCC12CC3CC(C1)CC(C(=O)O)(C3)C2	i
121	CSc1nnc([C@@H](NC(=O)OC(C)(C)C)C(C)C)o1	0.0
122	O=S(=O)(c1cc(Cl)ccc1Cl)n1nnc2ccccc21	0.3
123	COC(=O)c1ccc(S(=O)(=O)N2CCCC2)o1	0.7
124	CCOc1ccc(-c2[nH]ncc2Oc2cccc(OC)c2)c(O)c1	i
125	CCOc1ccc(N/C(=C(/C(Cl)=C(Cl)Cl)[N+](=O)[O-])n2cncn2)cc1	1.2
126	O=C(NCc1cn2ccsc2n1)Nc1ccc(Cl)cc1	i
127	O=C(OCc1nnc(-c2ccccc2)o1)c1ccc2c(c1)OCCO2	i
128	CC1=CC(C)C2C(=O)N(O)C(=O)C2C1 (stereo unspecified)	0.3

Compound activity from PubChem.
